Source: PubChem BioAssay (Center for Chemical Genomics, University of Michigan)
HIV TAR-Tat: HIV-1 TAR-Tat binding disruption | HIV-1 TAR RNA, Tat peptide displacement FRET; active compounds read high | z-score (concentration not given with the values) | actives 0.6% (n = 100,000) | AID 1259389;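 further: score is relative to mean and SD of negative controls; some compounds called inactive have numbers as strong as hits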
CDC25B CDK2 inh: human CDC25B-CDK2/CyclinA binding inhibition | z-score (concentration not given with the values) | actives 0.72% (n = 94,000) | AID 1259370 | HTRF CDC25B-CDK2/CyclinA binding, anti-His/anti-Flag; active compounds read high | P30305+P24941;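 further: score is relative to mean and SD of negative controls; strong numbers were not always called active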
* marks the source's active call; other numbers are inactive results; / = not tested or not shown.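 How the source made its calls: active means z-score from 3 up in half or more of its runs; inactive means the rest.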

Structure	HIV TAR-Tat	CDC25B CDK2 inh
CCOC(=O)N1CCN(C(=O)C(C)n2nc(C)n3c(cc4sccc43)c2=O)CC1 (stereo not drawn)	-0.59	-1.8
Cn1c(=O)c2cc(C(=O)N3CCC(N4CCCCC4)CC3)sc2n(C)c1=O	0.44	/
Nc1nnc(SCC(=O)Nc2nncs2)s1	0.9	-0.77
O=C1C2ON(c3ccccc3)C(c3ccccc3O)C2C(=O)N1c1ccccc1 (stereo not drawn)	1.2	-0.12
CSc1ccc(CNC(=O)Cn2ccc3cc(S(=O)(=O)N4CCCC4)ccc32)cc1	-0.85	/
CCOC(=O)C/C(C)=N/Nc1ccc([N+](=O)[O-])cc1	/	-0.92
O=C(O)CC1Oc2ccc(Cl)cc2NC1=O (stereo not drawn)	3.4	-0.5
COc1ccc(-c2cnc(C)o2)cc1S(=O)(=O)Nc1cc(C)cc(C)c1	1.8	/
CC1Cc2ccccc2N1C(=O)Cn1c(=O)oc2cc(S(=O)(=O)N3CCCC3)ccc21 (stereo not drawn)	1	-1.9
CCOc1ccccc1C1C(C(=O)OCc2ccccc2)=C(C)NC2=C1C(=O)CC(C)(C)C2 (stereo not drawn)	0.81	-2

Later entries:
Structure	HIV TAR-Tat	CDC25B CDK2 inh
CCN1CCN(CCCNC(=O)Nc2cn(CC(C)C)c(=O)c3ccccc23)CC1	0.6	/
COC(=O)C1=C(C)NC2=C(C(=O)CC(C)(C)C2)C1c1ccc(OC)cc1 (stereo not drawn)	1.4	-0.83
COc1cccc(OCC(O)Cn2c(C)[n+](C)c3ccccc32)c1 (stereo not drawn)	0.83	0.49
CCCc1cnc(N2CCN(C(=O)Nc3cc(C)oc3C(F)(F)F)CC2)nc1	/	1.2
COc1ccc(NC(=O)c2cc3c(=O)n4ccccc4nc3n2C)cc1	-0.86	/
Cc1[nH]c2ccc(-c3nnc(SCC(=O)NC(C)C)o3)cc2c1C	1.6	-1.8
Cc1cc(NS(=O)(=O)c2cc3c(cc2C)n(C)c(=O)c(=O)n3C)ccc1Br	-0.83	/
CC(CCc1ccccc1)NCC(O)c1ccc(O)c(C(N)=O)c1 (stereo not drawn)	2.1	-2.3
CCCCN(CC)S(=O)(=O)c1ccc2c(c1)CCCC(=O)N2	0.38	/
C=CS(=O)(=O)c1ccc(C(F)(F)F)cc1[N+](=O)[O-]	/	-1.2

The list goes on.
Structure	HIV TAR-Tat	CDC25B CDK2 inh
CCC(C(=O)N1CCN(c2ccccn2)CC1)n1c(C)c2cnn(-c3ccccc3)c(=O)c2c1C (stereo not drawn)	-0.28	1.5
O=C1Cc2cc(S(=O)(=O)NCCC3=CCCCC3)cc3c2N1CCC3	0.91	/
Cc1ccc(C2/C(=C(\O)c3ccc(Br)cc3)C(=O)C(=O)N2CCCn2ccnc2)cc1 (stereo not drawn)	0.49	-0.97
NNC(=O)c1cc(COc2cc(Cl)cc(Cl)c2)on1	/	-1.6
NC(=O)C1CCN(C(=O)N2c3ccccc3Sc3ccccc32)CC1	1.6	-1.2
Cn1c(=O)c2c(-c3ccc(C(C)(C)C)cc3)n(-c3ccccn3)cc2n(C)c1=O	0	0.34
COc1ccc(NS(=O)(=O)c2ccc(-c3cnc(C4CC4)o3)cc2)cc1Cl	1.6	/
CCN1CNC(=S)N(c2cc(C)ccc2C)C1	/	-0.62
NCCCc1nc2cc3ccccc3cc2[nH]1	0.96	-0.68
Cc1ccccc1CNCCCSc1nnnn1-c1ccccc1	-0.32	-1.5

(cont.)
Structure	HIV TAR-Tat	CDC25B CDK2 inh
COc1ccc(C2CC(=O)N3CN(c4ccc(Br)cc4)CSC3=C2C#N)cc1OC (stereo not drawn)	-0.65	5.6*
O=C(CN1c2ccccc2NC2=C(C(=O)CCC2)C1c1ccco1)Nc1ccccc1F (stereo not drawn)	-11	/
CC1=C(C(=O)Nc2cc(C(=O)NC(C)c3ccccc3)ccc2C)SCCO1 (stereo not drawn)	0.58	/
Cc1cc(Cl)ccc1Nc1nc(N(C)C)nc2c1cnn2C	1.1	/
COc1ccc(Cl)cc1N1C(=O)C2CCCN2C1c1cccs1 (stereo not drawn)	1	0.47
Cc1cc(C)n2nc(NC(=O)CC(C)C)nc2n1	1.8	1.1
COC(=O)N(C)CCCC1(C)C(=O)N(C)c2ccc(O)cc21 (stereo not drawn)	2.5	-0.74
CC(C)NC(=O)C1CCN(c2nn3c(=O)c4c(nc3s2)CCCC4)CC1	1.2	/
O=C(Nc1ccccc1)c1cc2ccc3cccnc3c2[nH]1	-0.33	/
Cc1cc(NC(=O)COCC(=O)O)no1	0.91	1.8

Arranged by count of non-hydrogen atoms (high to low): part of the list above
Structure	HIV TAR-Tat	CDC25B CDK2 inh
COc1ccc(C2CC(=O)N3CN(c4ccc(Br)cc4)CSC3=C2C#N)cc1OC (stereo not drawn)	-0.65	5.6*
CC1=C(C(=O)Nc2cc(C(=O)NC(C)c3ccccc3)ccc2C)SCCO1 (stereo not drawn)	0.58	/
CC(C)NC(=O)C1CCN(c2nn3c(=O)c4c(nc3s2)CCCC4)CC1	1.2	/
COC(=O)N(C)CCCC1(C)C(=O)N(C)c2ccc(O)cc21 (stereo not drawn)	2.5	-0.74
Cc1cc(C)n2nc(NC(=O)CC(C)C)nc2n1	1.8	1.1

(cont.)
Structure	HIV TAR-Tat	CDC25B CDK2 inh
CCCCCSc1nncc(=O)[nH]1	0.91	-1.1
Cc1cc(C)n2c(SCCc3ccccc3)nnc2n1	/	0.5
CCNC(=O)c1c(NC(=O)c2cc(=O)c3ccc(C)c(C)c3o2)sc2c1CCCC2	1.9	-2
CCc1cc2c(cc3c(=O)n(CC(=O)NCCN4CCOCC4)ncn32)s1	1	0.68
CC(C(=O)N1c2ccccc2Sc2ccc(C(F)(F)F)cc21)N1C(=O)c2ccccc2C1=O (stereo not drawn)	/	-1.4
CC1CCc2c(sc3ncnc(NCCN4CCOCC4)c23)C1 (stereo not drawn)	/	-0.7
Cc1c(C(=O)N2CCCc3ccccc32)sc2nc3n(c(=O)c12)CCCC3	1.3	/
Cc1ccccc1C(=O)N1CCc2cc3ccccc3nc21	0.95	-1.3
O=c1cc(CSc2nnc(-c3ccc(Cl)cc3)o2)nc2sc(C3CC3)nn12	14*	-2.2
Fc1cccc(CN2CCN(Cc3ccco3)CC2)c1	0.18	0.03

The list continues:
Structure	HIV TAR-Tat	CDC25B CDK2 inh
Nc1cc2ncnc(N3CCN(c4ccccc4)CC3)c2cn1	2.3	-3
CCCCCOC(=O)c1ccc(OC(=O)c2cncc(Br)c2)cc1	1.7	-0.97
O=C(Nc1cccnc1)c1cnn2c(C(F)F)cc(-c3ccccc3)nc12	-1.5	-2.7
Cc1cc(C)c2c(n1)nn1c(C)c(CCC(=O)NCCCN3CCCC3=O)c(C)nc21	-0.24	-0.15
COC(=O)c1cccc(CSc2ncccc2C(=O)O)c1	/	1.7
O=c1c2c(nc3nc(NCc4ccccc4F)[nH]n13)CCC2	-0.96	-0.03
CCOC(=O)C1C(=O)CC(C)(O)C(C(=O)OCC)C1c1ccc(C)o1 (stereo not drawn)	/	-1
COCCNc1nc(NCCc2cccs2)c2cnn(C)c2n1	1.1	/
CCOC(=O)c1cc(S(=O)(=O)NCc2cccs2)[nH]n1	1.5	/
CN(C)S(=O)(=O)c1cccc(NC(=O)CSc2nnc3sc4ccccc4n23)c1	/	-1.5

(next part)
Structure	HIV TAR-Tat	CDC25B CDK2 inh
CSc1cc(C(C)(C)C)nn1C(=O)c1ccc(Cl)cc1	/	-1.1
CCCCn1cc(S(=O)(=O)c2ccc(OCC)cc2)c(=O)c2cc(OC)c(OC)cc21	-0.29	0.72
Nc1nc(-c2ccccc2O)cc(C(F)(F)F)n1	1.4	0.52
Cc1ccc(N(C)S(=O)(=O)c2ccc3c(c2)NC(=O)C(C)CS3)cc1 (stereo not drawn)	-1.5	/
Cc1cccc(-c2ccc3ccccc3n2)c1	/	0.4
Cc1nc2ccc(S(=O)(=O)NC(CC(C)C)C(=O)N3CCn4c3nc3ccccc34)cc2s1 (stereo not drawn)	0.4	-0.14
CCN1CCc2c(sc(-n3cccc3)c2C(C)NC(=O)Nc2cc(OC)cc(OC)c2)C1 (stereo not drawn)	-4.3	2.3
COc1ccc(C2SCCN2S(=O)(=O)c2ccc(C)cc2)cc1 (stereo not drawn)	0.83	-0.45
COc1ccc2c(c1)C1=C(CC2)C(c2ccccc2)NC(=S)N1 (stereo not drawn)	/	0.83
CC1CC(C)CN(c2nnc(Cc3ccncc3)c3ccccc23)C1 (stereo not drawn)	3.9	-0.75

By substructure, the compounds so far with an NH in an aromatic ring
Structure	HIV TAR-Tat	CDC25B CDK2 inh
Cc1[nH]c2ccc(-c3nnc(SCC(=O)NC(C)C)o3)cc2c1C	1.6	-1.8
NCCCc1nc2cc3ccccc3cc2[nH]1	0.96	-0.68
O=C(Nc1ccccc1)c1cc2ccc3cccnc3c2[nH]1	-0.33	/
CCCCCSc1nncc(=O)[nH]1	0.91	-1.1
O=c1c2c(nc3nc(NCc4ccccc4F)[nH]n13)CCC2	-0.96	-0.03
CCOC(=O)c1cc(S(=O)(=O)NCc2cccs2)[nH]n1	1.5	/

Continuation.
Structure	HIV TAR-Tat	CDC25B CDK2 inh
CCNC(=O)Cn1nc(C)c2nn(-c3ccc(Cl)cc3)c(-n3cccc3)c2c1=O	0.85	/
Cc1ccc(NC(=O)c2cc(C(=O)O)ccc2C(=O)O)c([N+](=O)[O-])c1	/	-1.6
Cc1nc(N2CCN(c3ccccc3)CC2)nc2c1C(=O)CC(C)C2 (stereo not drawn)	-9.1	0.9
COc1ccc(NC(=O)CSc2nn3c(=O)c(C(C)(C)C)nnc3s2)cc1	0.47	/
CC1Cc2cc(S(=O)(=O)N3CCC(C(=O)N4CCOCC4)CC3)ccc2N1C(=O)C1CCC1 (stereo not drawn)	-0.13	/
Cc1ccc(-c2noc(-c3cc(-c4ccc(F)cc4)n[nH]3)n2)cc1	-0.78	/
Cc1ccc2cc(CCNC(=O)c3ccc(Br)o3)c(=O)[nH]c2c1C	/	-3.1
CC(=O)Nc1c(C(C)(C)C)nn2c(C)cc(C(F)(F)F)nc12	/	-0.96
O=C(NCC(c1ccco1)N1CCOCC1)c1cc(=O)c2ccc(Br)cc2o1 (stereo not drawn)	0.22	-1.2
CC1=C(C(=O)Nc2cccnc2)C(c2ccc(C(C)C)cc2)n2ncnc2N1 (stereo not drawn)	0.2	0.11

The listing continues.
Structure	HIV TAR-Tat	CDC25B CDK2 inh
CC(Oc1ccccc1)C(=O)Nc1c(C(=O)N2CCOCC2)oc2ccccc12 (stereo not drawn)	0.6	/
CCN(CC)CCOc1c(Br)ccc2c1sc1nc3n(c(=O)c12)CCC3	0.61	-2.3
COc1ccc(-n2nnc(C(=O)O)c2C)cc1	2.7	-1.3
Cc1c(C(=O)N2CCCC2)oc2ccc3c(c12)C(=O)CC(C)(c1ccc(Cl)cc1)O3 (stereo not drawn)	2.9	-2.8
CCCCC12CN3CC(C)(CN(C1)C3c1ccccc1O)C2=O (stereo not drawn)	0.13	0.83
Cc1[nH]nc2c1C(c1ccccc1)c1ccccc1-2 (stereo not drawn)	/	-0.56
COC(=O)CN1C(=O)C(O)(CC(=O)c2ccccc2)c2ccccc21 (stereo not drawn)	-2.5	3.3
CSc1cccc(NC(=O)C2CCN(S(=O)(=O)c3cccc4cccnc34)CC2)c1	-0.2	/
COc1cccc(/C=N/NC(=O)CC#N)c1OC	/	-1.9
Cc1ccc(C(=O)NNC(=O)c2sc(-c3csc(C)n3)nc2C)cc1	/	-1

Later entries.
Structure	HIV TAR-Tat	CDC25B CDK2 inh
CCN1C(=O)c2cc(C(=O)N3CCCC3)nn2CC1(C)C(=O)NC1CCCC1 (stereo not drawn)	0.22	/
CCc1nn(CC(=O)NC2CCC(C)CC2)c(=O)c2cc3sc(C)cc3n12 (stereo not drawn)	1.1	-2.7
O=S(=O)(Nc1cccc(-c2ccc(N3CCOCC3)nn2)c1)c1ccc(Cl)cc1	0.76	/
O=S(=O)(c1ccc(-c2cc(C(F)(F)F)on2)s1)N1CCCC1	0.51	/
CC(=O)Oc1ccc(C2C3=C(CC(C)(C)CC3=O)Nc3ccc4ccccc4c32)cc1 (stereo not drawn)	0.4	-1
CCCC1c2cccn2CCN1C(=O)Nc1ccc(OCC)cc1 (stereo not drawn)	-3.5	/
COc1cccc(Cc2n[nH]c(=S)n2Cc2ccco2)c1	/	-2.8
CCOc1cccc2c1OC(c1cccc(OC)c1)N1N=C(c3ccco3)CC21 (stereo not drawn)	/	-1.1
C=CCNc1nc(C2(C)CC3(CC(C)(C)OC3=O)C(=O)O2)cs1 (stereo not drawn)	/	-0.08
O=c1oc(-c2ccccc2F)nc2ccccc12	1.7	1.2

(cont.)
Structure	HIV TAR-Tat	CDC25B CDK2 inh
CCOC(=O)c1c(C)oc2ccc(N(C(=O)c3ccncc3)S(=O)(=O)c3ccc(Cl)cc3)cc12	/	-0.6
Cc1cccc(NC(=O)C(C)SC2=Nc3ccccc3C3=NC(C(C)C)C(=O)N23)c1 (stereo not drawn)	-1	/
CSc1ccccc1NC(=O)CSc1nc(-c2ccco2)cc(C(F)(F)F)n1	0.64	-0.61
Cn1c(C2=C(O)CN(c3ccccc3)C2=N)nc2ccccc21	-0.08	-2.1
COc1cc(OC)c(NC(=O)NC(C)c2c(-n3cccc3)sc3c2CCCC3)cc1Cl (stereo not drawn)	3	-2
CN(C)c1nc(Oc2ccc(OCc3ccccc3)nn2)nc(N(C)C)n1	0.79	-0.48
C=CCN(c1ccccc1)S(=O)(=O)c1ccc2c(c1)N(C(C)=O)CC(C)O2 (stereo not drawn)	1.7	/
CC(C)C1C(=O)Nc2ccc(S(=O)(=O)N3CC=C(c4ccccc4)CC3)cc21 (stereo not drawn)	-0.37	/
Cc1sc2ncnc(N3CCN(Cc4ccc5c(c4)OCO5)CC3)c2c1C	/	-0.27
